# High-throughput results (PubChem BioAssay)
# Ba CapD inh – inhibitors of Bacillus anthracis CapD enzyme; purified CapD enzyme, fluorescence intensity read-out; active compounds read low; some hits fall short of the stated cut; z-score (concentration not given with the values); 140,000 compounds, 0.23% hits;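 active means z-score under -4 in either of two replicates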;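 further: stock transfer was 100 nL into about 40 µL; score is relative to mean and spread of the plate; one replicate is shown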
# AID504770 – E. coli YBA685 growth inhibition, screen for V. cholerae RctB inhibitors | E. coli YBA685 rctB-dependent plasmid, OD600 growth, 3 h; active compounds read low | z-score (no concentration beside the values) | 130,000 compounds, 0.27% hits | AID 504770;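 active means z-score under -2 on both plates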;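 further: wells of about 30 µL received 100 nL stock; score is relative to mean and SD of the test wells; the first replicate is given; strong numbers were not always called active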
# The depositor's hits bear a star; . = no result given.
# Values run as follows: Ba CapD inh, AID504770
CC(C)CNC(=O)c1cc(-c2ccc(Cl)cc2)on1
→ 5.6, -0.15
COc1ccc(CN2CCSCC2)cc1Br
→ 0.055, 0.45
NC(=O)C1CCN(c2ccc(S(=O)(=O)N3CCCCC3)cn2)CC1
→ ., 0.25
CC(C)C(Nc1ccc(C(F)(F)F)cc1Cl)C(=O)O (configuration not stated)
→ 0.68, -0.7
NC(=O)COC(=O)c1ccccc1Br
→ ., -0.2
CN1CCN(c2cc(C(=O)c3ccccc3O)cn3c(=O)c4ccccc4nc23)CC1
→ ., 0.85
O=C1NC(=O)C(CCc2ccncc2)(c2ccccc2)C(=O)N1
→ ., 0.3
Cn1c(COc2cccc3cccnc23)nnc1SCC(=O)c1ccccc1
→ 0.085, -0.55
Cc1ccc(C)c(N2CCN(c3cc4c(nn3)Oc3ccccc3N4C)CC2)c1
→ 0.92, 3.2
O=C1/C(=C/c2ccc3c(c2)OCCO3)COc2ccccc21
→ ., 0.55
Clc1cccc(Cl)c1C1Nc2cccc3cccc(c23)N1
→ -0.97, .
O=c1[nH]c2ccccc2n1C1CCN(S(=O)(=O)c2ccc(Br)cc2)CC1
→ 0.43, .
O=C1CC(c2ccccc2)N=C(SCC(=O)NC2CCCCC2)N1 (configuration not stated)
→ ., 0.05
Cc1cc(C)n(-c2ccc(C(=O)OCCN3C(=O)c4ccccc4C3=O)cc2)n1
→ ., 0.65
COc1cccc(/C=N/N(CCO)C2=NS(=O)(=O)c3ccccc32)c1
→ 0.98, 0.55
COc1ccc(/C=C(\C#N)c2ccc([N+](=O)[O-])cc2)cc1[N+](=O)[O-]
→ 0.23, .
CC(=O)N(C)Cc1nc2ccccc2n1CC(=O)N(C)c1ccccc1
→ -0.035, 0
CC(=O)N1CCN(C(=O)CSc2ncnc3ccccc23)CC1
→ ., -0.3
CCN(C(=O)C1CCC1)c1nc2c(C)cccc2s1
→ ., -0.5
CCC(=O)c1ccc(OC(=O)C2c3ccccc3Oc3ccccc32)cc1
→ -0.15, -1.4
O=C(O)CC1(CC(=O)N2CCN(C(c3ccccc3)c3ccc(Cl)cc3)CC2)CCCC1 (configuration not stated)
→ 0.26, .
Cc1cccc(C)c1OCC(=O)Nc1ccc2c(c1)OCO2
→ ., 0.9
COc1ccc2[nH]cc(CCNC(=O)c3ccco3)c2c1
→ 0.21, 0.05
Cc1ccc(OCc2nc(-c3ccc(C(=O)NCCCN4CCN(Cc5ccccc5)CC4)cc3)oc2C)cc1
→ 1.4, -1.2
CCSc1nnc(-c2ccc(Cl)cc2)c2ccccc12
→ -0.17, .
CCOc1ccc(NC(=O)CSc2nc3ccccc3c(=O)n2CCCC(=O)N2CCN(c3ccccc3)CC2)cc1
→ -0.62, .
c1ccc2c(CSc3nc4ccccc4s3)cccc2c1
→ -0.15, 3.1
CCCS(=O)(=O)c1cscc1NC(=O)c1c(-c2c(F)cccc2Cl)noc1C
→ 0.44, .
CC1CCc2c(sc3nc(-c4cc5ccccc5oc4=O)[nH]c(=O)c23)C1 (configuration not stated)
→ -1.3, 0.2
O=S(=O)(c1ccc(Cl)cc1)N1CCCN(Cc2ccc(Cl)cc2Cl)CC1
→ 0.07, .

# 4 entries from above, sorted by number of heavy atoms, rising.
# Values run as follows: Ba CapD inh, AID504770
CC(=O)N1CCN(C(=O)CSc2ncnc3ccccc23)CC1
→ ., -0.3
CC1CCc2c(sc3nc(-c4cc5ccccc5oc4=O)[nH]c(=O)c23)C1 (configuration not stated)
→ -1.3, 0.2
CCCS(=O)(=O)c1cscc1NC(=O)c1c(-c2c(F)cccc2Cl)noc1C
→ 0.44, .
Cc1cc(C)n(-c2ccc(C(=O)OCCN3C(=O)c4ccccc4C3=O)cc2)n1
→ ., 0.65

# Next structures follow.
# Values run as follows: Ba CapD inh, AID504770
O=c1c2cccc3c2c(nn1CN1CCOCC1)-c1ccccc1-3
→ ., 1.1
Cc1noc(C)c1CSc1nc(-c2ccccc2)c(-c2ccccc2)n1CC1CCCO1 (configuration not stated)
→ ., 1.2
CCC(CO)Nc1ncnc2sc3c(c12)CCCC3 (configuration not stated)
→ ., 1.4
O=C(CCCc1ccccc1)Nc1ccc2c(c1)OCCO2
→ -0.8, 1.1
CC1(C)C(=O)C2(CCCCC2)C(=O)OC1C(=O)c1ccccc1 (configuration not stated)
→ 15, -0.6
COCCn1c(SCC(=O)Nc2sc(C)c(C)c2C#N)nnc1C(C)C
→ ., -1.1
CCOC(=O)c1cnc2c(OC)cccc2c1Nc1ccc(C)cc1Br
→ -0.67, .
O=c1c2ccccc2nc(CN2CCOCC2)n1-c1cccc(C(F)(F)F)c1
→ ., 0.2
CCOC(=O)c1c(/N=C/c2nc(-c3cccc(OC)c3)oc2O)sc2c1CCCC2
→ 0.24, .
Cn1c(Cn2c3ccccc3c3ccccc32)nnc1SCC(=O)O
→ 1, -0.5
O=C1CN(S(=O)(=O)c2ccc3[nH]c(=O)ccc3c2)CC(=O)N1CCc1ccccc1
→ 1.1, -0.65
O=C(NC12CC3CC(CC(C3)C1)C2)c1ccccc1Cl
→ -0.22, -1.1
CC1(C)CC2(CCCN(C(=S)Nc3ccccc3)C2)CCO1 (configuration not stated)
→ -0.85, 0.1
CC(=O)C1=NN(c2ccc(C)cc2)C(c2c[nH]c3ccccc23)N1c1ccc(C)cc1 (configuration not stated)
→ -0.44, .
O=C(CSC1=NCCS1)Nc1ccccc1Cl
→ -0.49, 0.8
O=C(CSc1nnc(-c2ccccc2)n1-c1ccccc1)N1CCN(C(=O)c2ccccc2)CC1
→ 0.07, .
O=c1[nH]c(-c2ccccc2)nc2c1Cc1ccccc1O2
→ 0.42, -0.65
Cc1ccc(S(=O)(=O)Nc2ccc3oc4c(c3c2)CC(C)CC4)cc1 (configuration not stated)
→ 0.26, .
CCOc1ccc(C(=O)/C(C)=N/O)cc1
→ -1.2, -1
Cc1cc(=O)[nH]c(Nc2ccccc2)n1
→ -0.46, 1.1
CCn1cc(C(=O)N(C)CC(OC)OC)c(=O)c2cc(S(=O)(=O)N3CCc4ccccc4C3)ccc21
→ 0.73, 0.45
CCCCN(c1ccccc1)S(=O)(=O)c1ccc2c(c1)oc(=O)n2CC(=O)OCC
→ -1.6, 1.1
CC(C)=CC1C(C(=O)OCc2cccc(Oc3ccccc3)c2)C1(C)C (configuration not stated)
→ ., 0.2
O=C(CSc1nc2ccccc2o1)NC1CCCc2ccccc21 (configuration not stated)
→ 0.48, -0.3
COc1cc(C(=O)NC2CCCc3ccccc32)ccc1OCc1c(C)noc1C (configuration not stated)
→ ., -0.8
CC1=C(C)CC(C(=O)Nc2ccc3c(c2)OCO3)C(C(=O)O)C1 (configuration not stated)
→ 0.36, .
CN(C)S(=O)(=O)c1cc(C(=O)O)c(N2CCCCC2)cc1Cl
→ ., 1.2
CC(C)(C)C(=O)NCC1COc2ccccc2O1 (configuration not stated)
→ -0.41, -0.9
C=CCOCC(O)Cn1c(N)nc2c1c(=O)n(C)c(=O)n2C (configuration not stated)
→ ., -0.15
CC1(C)CC(=O)C=C(Nc2sc3c(c2C#N)CCCC3)C1
→ -0.35, -0.85

# Reprinted at random: three entries already listed, in no set order.
# Values run as follows: Ba CapD inh, AID504770
CC1=C(C)CC(C(=O)Nc2ccc3c(c2)OCO3)C(C(=O)O)C1 (configuration not stated)
→ 0.36, .
CCn1cc(C(=O)N(C)CC(OC)OC)c(=O)c2cc(S(=O)(=O)N3CCc4ccccc4C3)ccc21
→ 0.73, 0.45
CN(C)S(=O)(=O)c1cc(C(=O)O)c(N2CCCCC2)cc1Cl
→ ., 1.2

# More compounds.
# Values run as follows: Ba CapD inh, AID504770
C=CCSc1n[nH]c(=O)n1C1CCCCC1
→ 0.75, 0.75
COc1ccc(C2CC(=O)C3=C(C2)Nc2ccccc2NC3c2ccc(N(C)C)cc2)cc1OC (configuration not stated)
→ 0.76, .
COc1ccc(CNC(=O)c2cnc3ccccn3c2=O)cc1
→ ., 0.75
CCN(CC)S(=O)(=O)c1ccc(C(=O)Nc2ccc(-n3nncc3-c3ccccc3)cc2)cc1
→ 0.33, 0.3
O=c1onc(-c2cccc(Cl)c2Cl)n1-c1cccnc1
→ 0.075, -0.25
N/C(Cc1nc2ccccc2[nH]1)=N\O
→ ., -0.3
Cn1cc(C(=O)Nc2ccc(F)c(Cl)c2)c(N)n1
→ -0.34, 1.8
CC1CN(CCC(=O)NN)CC(C)O1 (configuration not stated)
→ ., 1.5
CCOC(=O)CCn1c(-c2ccccc2)c(-c2ccccc2)c2cc(C)ccc21
→ 20, .
Cc1ccc(C(=O)OCC(=O)NCC2CCCO2)c(C)c1 (configuration not stated)
→ -1.5, 0.6
O=C(NCCc1c[nH]c2ccccc12)c1cc2n(n1)C(C(F)(F)F)CC(c1ccc(Cl)cc1)N2 (configuration not stated)
→ -0.38, .
Oc1cccc(C2N(Cc3ccccc3)CCN2Cc2ccccc2)c1
→ 3.6, .
CC1CCCCN1C(=O)Cc1ccc(Cl)cc1 (configuration not stated)
→ 0.18, 0.2
O=C1NCCc2c1[nH]c1c(Cl)ccc(Cl)c21
→ 4.9, .
O=C(COCc1cc(-c2ccc(F)cc2)on1)Nc1ccc(F)cc1F
→ 0.1, -1
CC(=O)NS(=O)(=O)c1ccc(NC(=O)c2cn3ccccc3n2)cc1
→ ., 1.8
CC(OC(=O)c1ccccc1F)C(=O)N1CCc2ccccc21 (configuration not stated)
→ ., -0.8
CC1CCCCN1S(=O)(=O)c1ccc(C(=O)Nc2nc3ccc4ccccc4c3s2)cc1 (configuration not stated)
→ 6.4, -1.4
CC(=O)Nc1ccc(S(=O)(=O)N[C@@H](C)C(=O)N2CCN(C/C=C/c3ccccc3)CC2)cc1
→ ., 0.7
O=C(Cn1ncn2nc(-c3cccs3)cc2c1=O)NCCCN1CCCCCC1
→ 8.5, 0.2
O=C1N=c2ccccc2=C1c1sc(N2CCOCC2)nc1O
→ -0.41, -0.3
COc1ccc(OCC(=O)Nn2cnnc2)cc1
→ ., -0.4
COc1ccc(N(C(=O)Cn2nnc3ccccc32)C(C(=O)NCC2CCCO2)c2sccc2C)cc1 (configuration not stated)
→ ., -0.7
CCOC(=O)C(Cc1c[nH]c2ccccc12)NC(=O)CN1C(=O)c2ccccc2C1=O (configuration not stated)
→ -0.27, .
COc1ccc(C(=O)COc2cc3c(C(=O)OC(C)C)c(C)oc3cc2Br)cc1
→ 0.34, .
CC1CCCCC1NC(=O)C1CCCN(c2nnc(-n3cccc3)s2)C1 (configuration not stated)
→ -0.12, -0.05
Cc1cc(C)c(C)c(S(=O)(=O)N2CCN(Cc3ccc4ccccc4c3)CC2)c1C
→ -1, .
CC(=O)O/N=C(\N)c1ccc(N2CCN(c3ncccc3C(F)(F)F)CC2)nc1
→ 2.2, -0.1
CCOc1ccc(C(c2c(C)[nH]n(-c3ccccc3)c2=O)c2c(C)[nH]n(-c3ccccc3)c2=O)c(OCC)c1
→ 5.9, .
Nc1ccc(S(=O)(=O)NCc2ccco2)cc1
→ 0.19, 0.05
Oc1ccc(-c2cnc3ccccc3n2)cc1
→ 5.1, 0.25
Cn1c(=O)c2c(nc(N3CCCCCC3)n2CC(=O)c2ccc(Br)cc2)n(C)c1=O
→ -0.39, .
CCOc1ccccc1-c1cc(C(=O)Nc2ccon2)c2ccccc2n1
→ 0.74, -0.45
CC(=O)c1ccc(NC(=O)CSc2nc3ccc(NC(=O)c4ccc(C)cc4)cc3s2)cc1
→ -0.035, .
Cc1cc(NC(=O)CSc2nc3nccnc3c(=O)n2Cc2ccco2)n[nH]1
→ -0.81, -0.1
O=C(CCc1ccccc1)OCc1nnc(-c2ccc(Br)cc2)o1
→ ., -0.35
CCN(c1ccccc1)S(=O)(=O)c1cc(C(=O)Nc2ccccc2Cl)ccc1F
→ -0.055, .
CCN(Cc1ccncc1)Cn1nc(C(=O)O)c2ccccc21
→ ., -0.85
COc1ccc(Oc2cccc(/C=N/NC(=O)CC3OC(=O)c4ccccc43)c2)cc1 (configuration not stated)
→ -0.58, .
O=C(NCCCn1ccnc1)c1ccc2c(c1)OCO2
→ 0.02, 0.3
COc1ccc(OCc2nc3ccccc3n2C)cc1
→ ., -0.1
COc1ccc(C=Nc2nc3ccccc3nc2N2CCCC2)cc1
→ ., -1.1
Cc1cc(N2CCN(C)CC2)nc2ccc(NC(=S)N3CCCCC3)cc12
→ -0.085, 0.05
Cc1ccc(NC(=O)CS(=O)CC(=O)Nc2ccc3c(c2)CCC3)cc1 (configuration not stated)
→ ., -0.35
Cc1ccc(CN(C)C(=O)c2cccc(S(=O)(=O)N(C)C)c2)o1
→ ., -0.75
CC(C)n1ncc2c1N=C(c1ccco1)N(C)C2c1ccccc1 (configuration not stated)
→ ., -0.3
O=C(O)/C=C/C(=O)Nc1ccccc1SCc1ccccc1Cl
→ -0.58, -0.3
Cc1ccc(C)c(OCc2nnc(SCC(=O)NC(=O)NCc3ccco3)o2)c1
→ ., 2.1
Cc1ccc(NC(=O)c2oc3ccccc3c2NC(=O)c2ccccc2)cc1
→ 0.095, -0.75
CC(=O)N1CCN(C2CCSC2)CC1 (configuration not stated)
→ 0.26, -0.45
CNS(=O)(=O)c1ccc(NC(=O)c2ccc(C)o2)cc1
→ -0.82, -0.45
Cc1ccc(N(C)C(=O)N2CCN(c3ccccn3)CC2)cc1
→ 0.61, 0.4
c1ccc(N=P(c2nc3ccccc3o2)(N2CCOCC2)N2CCOCC2)cc1
→ ., 0.15
O=C(CCC(=O)c1ccc(Br)cc1)Nc1cccnc1
→ -0.06, 0.1
O=C(CSc1ccccc1)N1c2ccccc2Sc2ccccc21
→ 0.69, 0.4
CC(C)C(NC(=O)OCc1ccccc1)C(=O)O (configuration not stated)
→ -0.24, 1.7
CCNCC1OCCc2ccccc21 (configuration not stated)
→ -0.29, 0.55
O=C(O)CSCC(=O)Nc1ccc2c(c1)C(=O)OC2
→ -0.89, -0.65
Cc1ccccc1N/C(SCc1ccc(Cl)cc1)=C(/C#N)C(=O)NCc1cccs1
→ -0.075, .
CCOc1ccc2c(c1)C(C)=CC(C)(C)N2C(=O)CSc1nnc(C2CC2)n1C
→ ., -0.4
CC1(C)CC(=O)C2=C(C1)OC1=C(C(=O)CC(C)(C)C1)C2c1ccc(-c2ccc(Cl)cc2Cl)o1
→ -0.68, .
